PrP 5UTR inh = inhibition of PrP 5' UTR reporter expression; cell-based PrP 5' UTR mRNA reporter, plate reader; inhibition, % (concentration not given with the values); 0.35% of 340,000 active;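 active means every replicate at 50% or more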;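 further: 0 = median of the neutral control wells; tested in H4 reporter cells; numbers are from one replicate; inactives centre near -14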
Mtb hypoxia rep = reduces hypoxia-regulated biosensor signal in M. tuberculosis. M. tuberculosis hypoxia-regulated fluorescent reporter, fluorescence. fluorescence inhibition, % (concentration not given with the values). 0.1% of 300,000 active;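 active means 35 to 45% if threefold the growth effect, above 45% if 1.5-fold the growth effect; inactive means the rest, general growth blockers included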;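 further: wells of about 50 µL received 100 nL stock; 0% = vehicle wells and 100% = reference inhibitor wells; whole bacteria with a GFP reporter of the hypoxia response; strong numbers were not always called active; many hits fall short of the cut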
Sa RN4220 lethal = kills Staphylococcus aureus RN4220; 0.33% of 330,000 active; S. aureus RN4220 growth, OD600, 16 h; inhibition, % (no concentration beside the values);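 active means z-score of -3 or lower and OD600 up to 0.18 on both plates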;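 further: plate controls were untreated cells for no effect and reference antibiotic for full effect; stock transfer was 100 nL into about 80 µL; one replicate is shown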
BJeLR lethal = kills HRASV12-expressing BJeLR cells | AID 1554 | inhibition, % (no concentration beside the values) | 0.17% of 300,000 active | BJeLR (HRASV12) viability, CellTiter-Glo ATP luminescence, 48 h; reference of the scale not given here;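 active means replicate mean above 50%; inconclusive means above 50% but judged a plate artefact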;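 further: 50 nL library stock added to about 25 µL; numbers are from one replicate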
Sa ugtP lethal = growth inhibition of S. aureus ugtP deletion strain; S. aureus RN4220 ugtP deletion, OD600 growth, 16 h; some inactives read as strong as hits; growth inhibition, % (concentration not given with the values); 0.54% of 330,000 active; AID 1259309;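 active means z-score under -3 and OD600 up to 0.15 on both plates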;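 further: plate controls were untreated wells for no effect and antibiotic for full effect; wells of about 80 µL received 100 nL stock; the first replicate is given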
Bead autofluor = flagged as autofluorescent in microsphere protease counterscreen. fluorescence intensity (concentration not given with the values). compound autofluorescence counterscreen, microsphere flow cytometry; stronger effect = higher value. 3.1% of 360,000 active;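 active means at least 3 SD above the mean of all compounds, about 16000 in these data; inconclusive means too few beads counted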;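 further: 100 nL of 1 mM stock went into each well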
Mtb hypoxia rep growth = further read-out of Mtb hypoxia rep, marked with its call; growth inhibition, %; measured here: M. tuberculosis growth (absorbance);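 0% = vehicle and 100% = reference antibiotic; read after six days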
* = called active by the depositor; ? = inconclusive; · = no result given.

smiles	PrP 5UTR inh	Mtb hypoxia rep	Mtb hypoxia rep growth	Sa RN4220 lethal	BJeLR lethal	Sa ugtP lethal	Bead autofluor
C=CCc1ccccc1OCC(=O)NN=Cc1ccccc1OCC	·	12.2	4.9	8.7	·	1.3	·
NC(=O)Cn1c(=O)n(-c2ccccc2)c(=O)c2oc3ccccc3c21	-1.5	1.7	10.7	3.7	7.4	10.5	5679
O=C1C2C3CCC(O3)C2C(=O)N1c1nccs1 (centres undefined)	-22.3	4.5	9.4	2.4	·	2.2	3466
CC(/C=N/NC(=S)Nc1cccc(S(=O)(=O)N(C)C)c1)c1ccccc1 (centres undefined)	-14.4	·	·	·	4.1	·	9052
Cc1cccc(C2C3C(=O)N(Cc4ccccc4)C(=O)C3[C@]3(Cc4ccccc4)C(=O)N(c4cccc(F)c4)C(=O)N23)c1 (some centres undefined)	·	-5.0	1.8	-2.3	·	-16.7	·
CCOC(=O)C1(CCOc2ccccc2)CCN(Cc2ccc3c(c2)OCCO3)CC1	-15.2	3.2	-0.5	-0.6	17.6	0.0	4422
O=C(COC(=O)c1cc(Cl)ccc1O)NC(=O)NCc1ccccc1	·	-2.0	-6.0	1.2	·	2.8	4133
Cn1c(=O)c(=O)n(C)c2cc(S(=O)(=O)NCCN3CCN(c4ccccc4F)CC3)ccc21	-6.8	15.0	4.5	3.2	-8.4	13.1	5842
O=C(CSc1nc2nc(-c3cccs3)cc(C(F)(F)F)c2c(=O)[nH]1)Nc1c(F)c(F)c(F)c(F)c1F	-7.8	10.8	-1.7	51.3	7.7	32.0	3439
CC1CN(S(=O)(=O)N2CCOCC2)CCN1S(=O)(=O)N1CCOCC1 (centres undefined)	-22.6	1.4	-1.5	1.3	-1.6	3.6	4839
O=C(c1ccccc1)C1CCN(C(=O)C2CCC(=O)N(Cc3ccccc3F)C2)CC1 (centres undefined)	-6.9	-7.2	-0.5	1.0	-3.2	5.1	5770
CN1CCN(S(=O)(=O)c2ccc(NC(=O)c3ccccc3F)cc2)CC1	-18.2	6.2	-1.0	1.4	-3.6	2.2	3920
COC(=O)CNC(=O)c1cccc(Cl)c1	-9.7	-2.2	8.5	-1.4	-4.5	-5.3	4407
Cc1ccc(CN2CCC(C(=O)NCCC(C)C)CC2)o1	-15.0	·	·	0.4	0.2	-4.7	4765
COc1ccc(C(=O)C(C)OC(=O)CNC(=O)c2ccco2)cc1 (centres undefined)	-24.7	31.2*	64.5*	5.3	·	12.0	2825
COc1cccc(OCCOc2ccc(/C=C3/SC(=S)NC3=O)cc2)c1	-16.5	4.9	2.3	0.4	8.6	3.7	4402
CC(=O)c1c(C)n([O-])c2ccc(C)cc2[n+]1=O	9.2	64.0*	13.4*	15.7	6.5	12.8	?
CN1C=C/C(=C\c2cc[n+](C)c3ccccc23)c2ccccc21	-9.2	3.0	12.5	33.9	27.3	34.6	4374
Cc1[nH]n(-c2ccc(F)cc2)c(=O)c1/C=N/c1sc2c(c1C#N)CCCC2	0.8	·	·	·	3.9	·	2664
CN1CCN(CC#CCOc2ccc(Cl)cc2)CC1	-6.2	11.4	1.0	2.6	4.6	4.1	3060
Nc1ccc2c(c1)Nc1ccccc1CC2	-39.7	16.5	8.9	3.9	2.4	2.8	5372
COc1ccc(CN2CCN(c3ccccc3F)CC2)cc1O	-29.0	4.1	16.6	3.7	-3.6	-3.1	3979
CC(OC(=O)c1cccc(O)c1)C(=O)N(C)Cc1ccccc1 (centres undefined)	-8.0	-3.1	-7.9	2.9	-7.5	2.4	5168
O=C(CC1C(=O)NCCN1Cc1ccc(F)cc1Cl)NC1CCCCCCC1 (centres undefined)	2.7	-2.6	-3.9	3.4	1.9	1.3	6071
CCN(CC)CCCN=Cc1c(O)n(CCc2ccc(F)cc2)c(=O)[nH]c1=O	-25.9	-6.3	10.8	7.0	-6.0	0.0	3306
COc1ccc(/C=C(/CC(=O)Nc2ccccc2)c2nc3ccccc3s2)cc1	-22.3	-19.1	-16.3	-7.3	6.5	-14.2	2103
CCC(c1nnnn1C(C)(C)C)N(Cc1cccs1)Cc1cc2cc(C)c(C)cc2n2nnnc12 (centres undefined)	·	4.1	-0.9	5.8	-1.5	6.1	·
O=C(NNS(=O)(=O)Cc1ccccc1)c1ccc([N+](=O)[O-])cc1	-17.3	4.1	9.7	4.8	4.7	6.7	?
CC(C)C(NC(=O)c1ccccc1F)C(=O)NCCCn1ccnc1 (centres undefined)	-12.2	2.3	7.2	6.6	·	3.0	6352
O=C(Nc1cccc(Cl)c1)NC1CCCCC1	-73.1	4.7	11.3	4.1	-1.9	-9.0	6042

Entries shown so far with a furan ring, fused or not:
smiles	PrP 5UTR inh	Mtb hypoxia rep	Mtb hypoxia rep growth	Sa RN4220 lethal	BJeLR lethal	Sa ugtP lethal	Bead autofluor
NC(=O)Cn1c(=O)n(-c2ccccc2)c(=O)c2oc3ccccc3c21	-1.5	1.7	10.7	3.7	7.4	10.5	5679
Cc1ccc(CN2CCC(C(=O)NCCC(C)C)CC2)o1	-15.0	·	·	0.4	0.2	-4.7	4765
COc1ccc(C(=O)C(C)OC(=O)CNC(=O)c2ccco2)cc1 (centres undefined)	-24.7	31.2*	64.5*	5.3	·	12.0	2825

New compounds follow
smiles	PrP 5UTR inh	Mtb hypoxia rep	Mtb hypoxia rep growth	Sa RN4220 lethal	BJeLR lethal	Sa ugtP lethal	Bead autofluor
CCCCOc1ccc(C2CC(=O)NC2=O)cc1 (centres undefined)	-12.2	8.2	9.0	-1.1	-2.9	-0.2	8684
C=Cn1cc[n+](CC(=O)c2cccs2)c1	-21.4	8.3	-0.5	3.5	-2.9	2.0	3782
CCOc1ccccc1NC(=O)CSc1nnnn1C1CCCC1	-17.8	19.0	4.1	0.6	0.3	8.7	5591
Cc1cccc(NC(=S)N(C)C2(c3ccccc3Cl)CCCCC2=O)c1 (centres undefined)	-18.5	4.2	9.5	7.3	2.6	-1.5	22871*
COc1ccc(-c2c(=O)n(OCc3nc4ccccc4[nH]3)c3ccccc3[n+]2[O-])cc1	-14.1	9.7	1.2	-1.1	-9.7	-1.4	5101
COc1cc2c(cc1OC)CN(C(=O)CSc1ccc(F)cc1)CC2	·	7.4	-5.5	2.9	·	4.2	?
COc1cc2c(cc1OC)C(C(=O)N1CCN(c3ccccc3)CC1)C(c1cccs1)N(C)C2=O (centres undefined)	-18.5	10.2	5.9	-4.0	-0.4	-3.0	3688
O=C(O)c1ccccc1C(=O)Nc1ccccc1	-14.5	-2.3	6.2	2.1	3.4	-0.8	6032
O=C(Cc1cccc2ccccc12)Nc1cc(Cl)ccc1C(=O)O	-8.8	·	·	·	2.5	·	3184
CCN(CC(=O)Nc1c(F)cccc1F)C(=O)Cc1ccc(S(=O)(=O)N2CCOCC2)s1	-4.7	-6.3	8.8	0.7	·	-0.7	·
Cc1ccc2nc(-c3ccc(O)cc3)c(Nc3ccc4c(c3)OCCO4)n2c1	-15.2	1.5	1.9	-11.7	8.9	-11.9	4730
CCC(C)NC(=O)CN(C1CCCCC1)S(C)(=O)=O (centres undefined)	-11.8	0.3	-4.7	-0.9	2.2	-5.1	4825
CC(C)[C@H](NC(=O)OCc1ccccc1)C(=O)N[C@@H](Cc1c[nH]c2ccccc12)C(=O)O	-41.4	·	·	·	-6.9	·	3458
Cc1ccc(NC(=O)CN(C)C(=O)c2ccc(NS(=O)(=O)c3ccc4[nH]c(=O)[nH]c4c3)cc2)cc1	6.4	8.3	3.9	-2.1	·	-1.5	4487
COC(=O)C(Cc1cnc(Cl)s1)(C(=O)OC)c1ccc([N+](=O)[O-])cc1	2.2	·	·	3.1	1.7	12.1	4534
CCOc1ccc(N2CC(C(=O)NC3=NCCS3)CC2=O)cc1 (centres undefined)	-52.2	4.5	10.3	-1.8	3.7	4.7	3422
COc1ccc(NC(=O)NNS(=O)(=O)c2cc(C)ccc2C)cc1OC	-27.7	3.9	-1.1	3.0	-6.4	3.6	6126
Cn1c(-c2ccc3c(c2)OCO3)cnc1NC(=O)CCC(=O)NCCc1ccccc1	-34.6	-0.8	3.5	5.8	8.5	-10.0	22472*
COc1cc2c(C(=O)Nc3ccc4c(c3)OCO4)cn(CC(C)C)c(=O)c2cc1OC	·	-3.4	2.7	3.7	-2.9	3.1	·
O=C(NCCCn1ccnc1)c1ccco1	-3.4	9.7	2.5	4.8	1.5	3.4	24362*
Cc1cc2ccccn2c1C(=O)c1nc(NCc2ccccc2)ncc1Cl	-14.8	3.3	14.7	0.0	-10.2	16.0	2563
Cc1ccnn1CC(=O)N/N=C/c1ccc([N+](=O)[O-])s1	-4.3	·	·	·	6.5	·	6061
O=C(CSc1nc(-c2ccccc2)c(-c2ccccc2)o1)N1CCOCC1	8.0	·	·	5.0	-4.9	9.9	2232
CCOC(=O)Cc1csc(NC(=O)c2ccncc2)n1	-9.6	3.2	19.3	-0.8	-2.9	-4.8	6070
COc1ccc(NC(=O)C2CCCN(S(=O)(=O)c3ccc4c(c3)oc(=O)n4C)C2)c(OC)c1 (centres undefined)	-24.3	-1.2	7.5	-0.6	2.0	3.4	4265
CCCCN(CC)C(=O)/C=C/c1cccc([N+](=O)[O-])c1	6.5	·	·	0.5	-0.3	-4.6	4584
Clc1ccc(N2COC3c4cccc5cccc(c45)C32)cc1 (centres undefined)	-33.9	5.8	13.2	-1.0	11.9	61.0	22405*
Cc1ccc(CN(C(=O)c2csnn2)C(C(=O)NC2CCCC2)c2ccc(C)o2)cc1 (centres undefined)	-5.6	0.6	10.6	-0.4	5.0	1.7	3998
COC(=O)CC(C(=O)Nc1cc(C(=O)OC)cc(C(=O)OC)c1)N1CCN(C)CC1 (centres undefined)	3.9	1.9	1.9	4.7	9.4	3.7	8058
S=c1[nH]c(-c2ccccc2)cn1/N=C/c1ccccc1Br	-21.8	·	·	·	27.6	·	4318

As a working copy, some entries already given:
smiles	PrP 5UTR inh	Mtb hypoxia rep	Mtb hypoxia rep growth	Sa RN4220 lethal	BJeLR lethal	Sa ugtP lethal	Bead autofluor
COc1cc2c(cc1OC)C(C(=O)N1CCN(c3ccccc3)CC1)C(c1cccs1)N(C)C2=O (centres undefined)	-18.5	10.2	5.9	-4.0	-0.4	-3.0	3688
O=C(O)c1ccccc1C(=O)Nc1ccccc1	-14.5	-2.3	6.2	2.1	3.4	-0.8	6032

Continuation.
smiles	PrP 5UTR inh	Mtb hypoxia rep	Mtb hypoxia rep growth	Sa RN4220 lethal	BJeLR lethal	Sa ugtP lethal	Bead autofluor
Nc1nc(C23CC4CC(CC(C4)C2)C3)cs1	-15.3	7.0	5.3	12.3	15.9	10.4	9497
CCc1cccc(C)c1NC(=O)C1CCN(c2nn3c(=O)cc(C)nc3s2)CC1	0.6	-13.9	-9.7	-2.3	-14.4	-4.0	5487
Cc1ccc(S(=O)(=O)N(CC(=O)N2CCCC2)C2CCCCC2)cc1	-16.4	4.5	-4.3	7.7	-0.9	3.3	5590
Cc1ccc(-c2ccc(CCC(=O)O)n2-c2cccc(C(=O)O)c2)cc1	-3.7	-1.9	4.7	4.6	11.7	9.2	4033
CN(c1ccccc1C(=O)NC1CCCCC1)S(=O)(=O)c1ccccc1	-35.6	-0.3	-5.9	5.5	·	-18.2	3950
O=C1C=CC[C@H](/C=C/C[C@@H](O)C[C@H](O)CCc2ccccc2)O1	·	·	·	3.9	-9.6	-9.4	4120
Cc1[nH]c(C)c(S(=O)(=O)NCc2ccccc2Cl)c1C(=O)N1CCCC1	-0.8	-7.3	-8.8	3.2	-0.8	8.7	4560
Cc1ccc(S(=O)(=O)N2CCCCC2)cc1C(=O)NC1CC(C)(C)NC(C)(C)C1	-14.0	10.3	3.4	0.0	6.8	0.9	6468
Cc1c(Cl)cccc1NC(=O)CCC(=O)N/N=C/c1ccco1	-20.4	·	·	·	-3.6	·	5706
COc1ccc(Cc2nnc(SCC(=O)NC(C)c3ccccc3)o2)cc1 (centres undefined)	-2.6	-0.9	9.5	2.0	4.6	3.8	22651*
Cc1nc(C(F)(F)F)nc(Nc2ccc(N=Nc3ccccc3)cc2)c1C#N	6.4	7.5	5.2	3.3	-11.3	2.4	2439
CCCCC(CCC(=O)Nc1ccccc1C(=O)OCC)C(=O)O (centres undefined)	-13.4	·	·	3.4	2.0	-2.5	2648
O=C(Nc1ccncc1)c1cc(-c2ccccn2)nc2ccc(Br)cc12	-13.2	9.3	3.9	-11.4	-2.2	8.0	3271

Screens as filed in PubChem.
